PINK1 modulator: A Quantitative High throughput Screen to Identify Chemical Modulators of PINK1 Expression | 410,000 tested, 0.2% active | Potency, µM (top dose mostly 76.6 µM), for the others: at the top dose activation (PINK1 increase), most hits filed as activators | AID 624263, 2012 | PINK1 immunofluorescence, high-content cytometry, 24 h; active = well fitted activation curve with a large enough effect; inconclusive = small, poorly fitted or top-dose-only effect; inactive = flat fitted curve, though single readings scatter; cell line not stated here;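 further: potency means the concentration at half of the fitted maximal effect; % of control where 0% means no effect; nearly all actives have a fitted effect of over 65% in size; a mitochondrial uncoupler was the plate control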
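A stable cell line was treated with compounds at 5 concentrations for 24 hours, with CCCP as control. PINK1 levels and mitochondrial localization were measured by immunofluorescence with mitochondrial, cell and nuclear markers after fixation, read by laser-scanning cytometry.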
Six1-Eya2 inh: qHTS Assay for Inhibitors of the Six1/Eya2 Interaction | Homeobox protein SIX1 (Homo sapiens) + Protein phosphatase EYA2 (Homo sapiens), … | AlphaScreen GST-Six1/His-Eya2 binding, biochemical; active compounds read low; control for the full effect not named in the record | activity change, % (concentration not given with the values) | 360,000 tested, 0.56% active; in the data active = activity change below about -65%; inconclusive = about -30% to -65%; inactive = above about -30%; further: on the % scale 0 is the no-effect control and ±100 the full control effect
Target sequence (O00167 whole entry, looked up): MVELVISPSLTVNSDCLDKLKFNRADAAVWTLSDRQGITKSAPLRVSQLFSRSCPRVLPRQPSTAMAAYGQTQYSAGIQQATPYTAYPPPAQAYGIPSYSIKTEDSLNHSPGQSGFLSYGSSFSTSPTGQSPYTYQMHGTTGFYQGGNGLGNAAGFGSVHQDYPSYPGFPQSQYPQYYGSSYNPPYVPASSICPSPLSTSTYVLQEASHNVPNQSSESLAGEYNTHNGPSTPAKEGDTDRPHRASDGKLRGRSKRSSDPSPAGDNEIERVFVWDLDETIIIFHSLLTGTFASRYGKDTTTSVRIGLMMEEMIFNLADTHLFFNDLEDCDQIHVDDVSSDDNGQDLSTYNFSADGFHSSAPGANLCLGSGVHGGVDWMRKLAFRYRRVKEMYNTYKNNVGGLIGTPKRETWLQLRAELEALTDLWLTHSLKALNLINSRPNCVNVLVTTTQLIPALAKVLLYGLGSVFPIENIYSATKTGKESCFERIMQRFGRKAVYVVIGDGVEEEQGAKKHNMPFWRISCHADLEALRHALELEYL
Target sequence (Q15475 whole entry, looked up): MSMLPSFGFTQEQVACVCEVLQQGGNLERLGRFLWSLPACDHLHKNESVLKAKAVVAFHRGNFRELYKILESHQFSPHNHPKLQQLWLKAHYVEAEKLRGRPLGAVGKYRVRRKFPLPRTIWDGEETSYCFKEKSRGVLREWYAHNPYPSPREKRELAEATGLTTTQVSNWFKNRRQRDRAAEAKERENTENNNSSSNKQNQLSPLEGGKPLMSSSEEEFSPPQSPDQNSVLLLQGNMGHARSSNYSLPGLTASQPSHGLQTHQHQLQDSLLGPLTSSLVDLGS
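AlphaScreen luminescence read after one hour at 37 °C in darkness. Pin-transferred compounds met GST-Six1 and His-Eya2 protein (5X stock 250 nM/500 nM) plus glutathione donor and Ni-chelate acceptor beads (5X, 50 ug/mL).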
CtBP-E1A inh: qHTS Assay for Inhibitors of the CtBP/E1A Interaction. 340,000 tested, 0.49% active. activity change, % (no concentration beside the values). AlphaScreen GST-E1A/His-CtBP binding, 1536-well; active compounds read low; control for the full effect not named in the record; in the data active means activity change below about -65%; inconclusive means about -30% to -65%; inactive means above about -30%; further: on the % scale 0 is the no-effect control and ±100 the full control effect
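GST-E1A and His-tagged CtBP (125 nM each as 5X stock) were preincubated with pin-transferred compound for 2 h at 37 °C in the dark, then glutathione donor and nickel acceptor beads were added for 1 h before AlphaScreen reading.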
D2 agonist: Beta-Arrestin HTS for Positive Allosteric Modulators of the Human D2 Dopamine Receptor: Agonists. D(2) dopamine receptor (Homo sapiens), P14416. DiscoveRx PathHunter D2 beta-arrestin, luminescence, 90 min; 100% = 57 uM dopamine signal. 360,000 tested, 0.084% active. activation, % (no concentration beside the values); in the data active = activation above about 40%; inconclusive = about 15% to 40%; inactive = below about 15%; further: compound concentration not given in the record; the text of the record calls up to 30% inactive
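Agonist mode: compounds alone added to overnight-plated D2 PathHunter cells for 90 min at 37 C, with 57 uM final dopamine (EC100) defining full response. Beta-arrestin recruitment detected by chemiluminescent reagent, read after 1 h at ambient temperature.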
TRPV1 PAM: HTS Assay for Compounds that Act as Potentiators of the Vanilloid Receptor 1; TRPV1-expressing cells, Fluo-8 calcium influx, capsaicin EC20 potentiation; host cell line not named in the record; control for the full effect not named in the record; potentiation, % at 8.33 µM; Transient receptor potential cation channel subfamily V member 1 (Homo sapiens), Q8NER1; 320,000 tested, 0.02% active; AID 540277, 2011; active means potentiation above 80%; inconclusive means 30% to 80%; inactive means below 30%; further: 0% is about no effect
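TRPV1-expressing cells were cultured overnight at 35.5C and loaded with Fluo-8 calcium dye for 40 to 90 min at room temperature. After a 10 s baseline, compound was added and calcium influx was read kinetically for 3 min (ex 480/em 520 nm).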
Sfp inh: qHTS Assay for Inhibitors of Bacillus subtilis Sfp phosphopantetheinyl transferase (PPTase). 4'-phosphopantetheinyl transferase ffp (Bacillus subtilis), Q9F4F7. Biochemical Sfp PPTase activity, qHTS. Potency, µM, for inactives: max response, negative = inhibition, usual class: inhibitors. 310,000 tested, 3.5% active. AID 1490, 2009; active means well fitted inhibition curve with a large enough effect; inconclusive means small, poorly fitted or top-dose-only effect, or another doubt; inactive means no such curve, though single readings can be large or run the other way;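 further: the enzyme is Sfp with the accession as filed and its product quenches rhodamine fluorescence; potency means the concentration at half of the fitted maximal effect; 0% = enzyme reaction without inhibitor and -100% = no enzyme wells; top concentration of the series not given in the record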
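Step 1, compound plus 15 nM Sfp-PPTase, 15 min, room temperature. Step 2, add rhodamine-CoA (5 uM) and BHQ-2-YbbR (12.5 uM). Step 3, read 525/598 nm fluorescence at 0 and 30 min.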
D2 potentiator: Beta-Arrestin HTS for Positive Allosteric Modulators of the Human D2 Dopamine Receptor: Potentiators. D(2) dopamine receptor (Homo sapiens), P14416. DiscoveRx D2 beta-arrestin cells, luminescence, 90 min; 100% = 57 uM dopamine signal. potentiation, % (no concentration beside the values). 360,000 tested, 0.23% active; active = potentiation of 50% or more; inconclusive = 30% to 50%; inactive = 30% or less;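 further: compound concentration not given in the record; tested on top of an EC20 dose of dopamine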
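D2 cells co-treated with compound plus 50 nM dopamine (EC20) for 90 min at 37 deg C to detect potentiation. Beta-arrestin recruitment was read as enzyme-fragment luminescence after 1 h at ambient temperature. Full response was set by 57 uM dopamine.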
Active calls of the source: *; ? = inconclusive; · = no result given; [ ] = dose if it differs, or a comment.

SMILES	PINK1 modulator	Six1-Eya2 inh	CtBP-E1A inh	D2 agonist	TRPV1 PAM	Sfp inh	D2 potentiator
OCC1(CCc2ccccc2)CCN(Cc2cccn2-c2cccnc2)CC1	-1.3%	-21	·	-0.8	-7	7%	-17
COC(=O)c1cc(NC(=S)NCc2ccc(Cl)cc2)cc(C(=O)OC)c1	?	-10	0	3.4	-15	-3%	1
CN(C)c1cccc(C(=O)OCC(=O)N(C)c2ccccc2)c1	-0.3%	18	-6	-4.2	3	-9%	-4
O=C(CN(Cc1ccc(F)cc1)C(=O)CNS(=O)(=O)c1ccc(F)cc1)NCc1ccco1	1.2%	-6	7	3.4	5	4%	-1
Cc1cccc(C)c1NC(=O)CNC(=O)CCC(=O)N1CCOCC1	-0.9%	-13	-2	-1.9	7	·	-10
COc1ccc(CCNC(=O)c2cc3c(=O)n4ccccc4nc3n(CCN3CCOCC3)c2=N)cc1	2.1%	-7	-17	-4.8	-3	9%	2
O=C(CSc1nnc(C2CC2)n1-c1ccccc1)NCc1ccco1	-0.3%	0	-1	-3.5	-3	-15%	-4
CC(=O)N1CCN(C(=O)CCN(c2ccccc2)S(=O)(=O)c2ccc(C)cc2)CC1	-0.8%	3	3	-1.2	-2	·	2
CC(=O)Nc1nc2ccccc2n1Cc1ccccc1Cl	3.9%	-13	3	-9.9	-14	25%	-4
C=CCc1cccc(/C=N/NC(=O)CNc2cccc3ccccc23)c1O	3.5%	-21	-11	-4.1	12	4%	-18

Not a retest: an excerpt of the list.
SMILES	PINK1 modulator	Six1-Eya2 inh	CtBP-E1A inh	D2 agonist	TRPV1 PAM	Sfp inh	D2 potentiator
CC(=O)Nc1nc2ccccc2n1Cc1ccccc1Cl	3.9%	-13	3	-9.9	-14	25%	-4
C=CCc1cccc(/C=N/NC(=O)CNc2cccc3ccccc23)c1O	3.5%	-21	-11	-4.1	12	4%	-18

The listing picks up with the 7 entries that preceded the break.
SMILES	PINK1 modulator	Six1-Eya2 inh	CtBP-E1A inh	D2 agonist	TRPV1 PAM	Sfp inh	D2 potentiator
O=C(CN(Cc1ccc(F)cc1)C(=O)CNS(=O)(=O)c1ccc(F)cc1)NCc1ccco1	1.2%	-6	7	3.4	5	4%	-1
Cc1cccc(C)c1NC(=O)CNC(=O)CCC(=O)N1CCOCC1	-0.9%	-13	-2	-1.9	7	·	-10
COc1ccc(CCNC(=O)c2cc3c(=O)n4ccccc4nc3n(CCN3CCOCC3)c2=N)cc1	2.1%	-7	-17	-4.8	-3	9%	2
O=C(CSc1nnc(C2CC2)n1-c1ccccc1)NCc1ccco1	-0.3%	0	-1	-3.5	-3	-15%	-4
CC(=O)N1CCN(C(=O)CCN(c2ccccc2)S(=O)(=O)c2ccc(C)cc2)CC1	-0.8%	3	3	-1.2	-2	·	2
CC(=O)Nc1nc2ccccc2n1Cc1ccccc1Cl	3.9%	-13	3	-9.9	-14	25%	-4
C=CCc1cccc(/C=N/NC(=O)CNc2cccc3ccccc23)c1O	3.5%	-21	-11	-4.1	12	4%	-18
COc1cc2c(cc1OC)C1=C(C#N)CCC(=O)N1CC2	-1.5%	0	-1	-5.0	16	16%	1
CS(=O)(=O)N1CCC(C(=O)c2cccc(Cl)c2)CC1	4.6%[38.3 µM]	2	2	-2.3	4	22%	-7
Cc1ccc(-c2nn(-c3ccccc3Cl)cc2C(=O)NCC2CCCO2)cc1 (stereo not given)	?	4	4	-6.5	-16	·	-36
Cc1ccc(S(=O)(=O)N2CCN(C(=O)CSc3nc(N)cc(=O)[nH]3)CC2)c(C)c1	-0.5%	0	5	0.0	-1	6%	-8
CC(C)(C)NC(=O)Cn1c(SCC(=O)NC2CC2)nc2ccccc21	1.5%	-13	-2	2.2	5	12%	-7
COc1ccc(Nc2nc(C(F)(F)F)nc(C)c2C#N)cc1	3.4%	6	-2	-5.3	-2	13%	-4
CCOC(=O)c1c(-c2ccc(F)cc2)csc1NC(=O)C1CCCO1 (stereo not given)	6.7%	9	1	-0.3	-1	22µM*	1
O=S(=O)(NCc1ccc(F)cc1)c1ccc2c(c1)OCCO2	-2.0%	-3	4	-3.0	7	-4%	-14
CCn1c(SCC(=O)N2CCN(c3ccccc3)CC2)nc2c(c1=O)SC(C)C2 (stereo not given)	3.6%	-2	-2	-0.1	1	14%	8
O=C(Nc1nc(-c2cccc3ccccc23)cs1)c1cnccn1	3.8%	-2	-7	0.2	8	-7%	-12
C=CCSc1nc2ccccc2c(=O)n1C1CCOC(C)(C)C1 (stereo not given)	19%	-2	9	-0.8	8	5%	-1
S=c1[nH]c(-c2ccccc2)cn1/N=C/c1ccc(Br)cc1	4.6%	-10	-14	-1.0	-1	11%	-18
Cc1cc(C(=O)CCl)c(C)n1Cc1ccco1	?	-3	3	-5.2	8	-24%	-9
COc1ccc2[nH]cc(CCNC(=O)C3CCCNC3=O)c2c1 (stereo not given)	0.7%	1	-22	5.2	11	15%	2
Cc1ccc(N2C(=O)[C@@H]3[C@H](C2=O)[C@H]2C=C(C(=O)c4ccccc4)C=CN2[C@@H]3C(=O)c2ccc(Cl)cc2)cc1	-0.1%	-1	-7	6.2	3	-14%	-2
CCn1c(=O)c2cc(S(=O)(=O)NCc3ccccc3)ccc2n(CC)c1=O	17%[38.3 µM]	-3	-7	1.7	-5	15%	2
O=C(NCc1ccco1)Nc1ccc(OC(F)(F)F)cc1	2.5%	1	·	0.9	·	11%	-6
Cc1ccc2c(c1)sc[n+]2Cc1ccccc1	9.3%[38.3 µM]	-15	2	-4.1	13	25µM*	-17
CCOC(=O)c1cccc(NC(=O)CCNS(=O)(=O)c2ccc3c(c2)CCN3C(=O)CC)c1	-1.3%	-3	1	3.4	3	19%	9
CCN(CC)S(=O)(=O)c1ccc(/C=C/C(=O)OCC(=O)Nc2cccnc2Cl)cc1	-0.1%	1	2	3.5	-13	·	4

4 of the entries above in order of their number in D2 agonist, highest first:
Structure | PINK1 modulator | Six1-Eya2 inh | CtBP-E1A inh | D2 agonist | Sfp inh | D2 potentiator
CCN(CC)S(=O)(=O)c1ccc(/C=C/C(=O)OCC(=O)Nc2cccnc2Cl)cc1 | -0.1% | 1 | 2 | 3.5 | · | 4
CCOC(=O)c1cccc(NC(=O)CCNS(=O)(=O)c2ccc3c(c2)CCN3C(=O)CC)c1 | -1.3% | -3 | 1 | 3.4 | 19% | 9
Cc1ccc2c(c1)sc[n+]2Cc1ccccc1 | 9.3%[38.3 µM] | -15 | 2 | -4.1 | 25µM* | -17
Cc1cc(C(=O)CCl)c(C)n1Cc1ccco1 | ? | -3 | 3 | -5.2 | -24% | -9

Next section.
SMILES	PINK1 modulator	Six1-Eya2 inh	CtBP-E1A inh	D2 agonist	TRPV1 PAM	Sfp inh	D2 potentiator
Clc1ccc(N=c2ssnc2Cl)nc1	3.7%	1	·	-1.2	-5	21%	103*
Cc1cccc(Oc2ccccc2NC(=O)CN2C(=O)NC3(CCCC3)C2=O)c1	5.2%	-2	4	4.7	-22	·	1
O=C(c1ccsc1)N1CCCC(Nc2ccc(F)c(F)c2)C1 (stereo not given)	2.8%	-1	·	3.8	-9	?	-1
CCOc1ccc(NC(=O)COC(=O)CNC(=O)c2ccc(-c3ccccc3)cc2)cc1	0.3%	5	·	-3.4	-1	·	-3
COc1cc(C(=O)Nc2nc(-c3ccc(F)cc3)cs2)ccc1OCC(=O)N1CCOCC1	-1.1%	-2	-1	12	18	-5%	8
CCCCC(CC)CO (stereo not given)	-0.1%	0	1	-4.7	·	·	-28
CCOc1cc2[nH]c(=S)n(Cc3ccc(C)o3)c(=O)c2cc1OCC	?	1	-3	-1.1	9	-22%	2
CCn1nnnc1SCC(=O)NCc1ccco1	-1.3%	5	-8	-1.5	-6	-26%	-3
COc1ccc(OCCCC(=O)OCC(=O)NNC(=O)c2ccc([N+](=O)[O-])cc2)cc1	-1.5%	-1	-10	-3.5	8	·	-3
CCCCC(c1nnnn1CC1CCCO1)N1CCN(c2cc(Cl)ccc2C)CC1 (stereo not given)	8.8%	-2	2	-3.5	-12	-18%	-15
CNC(=O)NC(=O)CSc1ncc(C(F)(F)F)cc1Cl	0.0%	4	4	-2.0	3	-3%	2
O=C(C[n+]1ccc(CCSc2ccc(F)cc2)cc1)c1ccccc1	2.3%	3	0	-3.6	-22	50µM*	-4
COc1ccc([N+](=O)[O-])cc1N(CC1CO1)S(=O)(=O)c1ccc(C)cc1 (stereo not given)	3.4%	-5	7	-2.6	-6	15%	-2
C[C@@H]1CN([C@H](C)CO)C(=O)CCCn2nncc2CO[C@H]1CN(C)S(=O)(=O)c1ccccc1F	2.9%	-11	10	-6.8	·	·	0
CN1CCN(c2ccc(CNS(=O)(=O)c3cccc(F)c3)cc2)CC1	3.3%	2	·	-3.9	9	3%	-17
CC(=O)Nc1cccc(OCCCOc2cccc([N+](=O)[O-])c2)c1	-3.3%	?	0	-3.0	·	·	-8
CC1(C)CCCN(C(=O)c2ccc3c(c2NCCO)C(=O)c2ccccc2C3=O)C1	-0.1%	?	-1	-0.3	-3	-17%	7
COc1cccc(C(=O)NNS(=O)(=O)c2ccc(F)cc2)c1	1.0%	0	·	2.8	17	-4%	-1
CCCOc1ccc(CSc2ncn[nH]2)cc1	1.6%	1	3	-1.3	-8	10%	-2
CCC1CCCCN1S(=O)(=O)c1c(C)n(C)c(=O)n(C)c1=O (stereo not given)	-4.0%	3	-6	-1.9	1	·	-2
Cc1nnc(N2C(=O)C(O)=C(C(=O)c3ccco3)C2c2ccc(F)cc2)s1 (stereo not given)	-0.3%	-3	5	-4.4	14	-12%	-2
